# Rango complex inh: qHTS Assay for Inhibitors of Rango (Ran-regulated importin-beta cargo) - Importin beta complex formation | Importin subunit beta-1 (Homo sapiens), Q14974 | Rango CFP/YFP FRET sensor + importin beta, 45 min | hit rate 0.031% among 340,000 | Potency, µM (highest dose often 92.2 µM), without a hit: at the highest dose inhibition of complex formation | AID 540263, 2011; active = rising FRET ratio curve, often small or poorly fitted; inconclusive = mostly compound fluorescence or quenching in the first reads; inactive = flat curves in all reads;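 note: potency is the fitted concentration of half-maximal effect; 0% = DMSO wells and 100% = buffer wells lacking importin beta; nearly all actives have a fitted effect of over 15% in size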
#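 FRET biosensor Rango (snurportin 1 IBB between N-terminal EYFP and C-terminal Cerulean), 50 nM in PBS/1 mM DTT/0.02% Tween-20/0.1% BSA, preincubated 5 min RT with compound; 0.125 microM importin beta added, 45 min RT, CFP/YFP FRET ratio read.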
# miR-21 reporter: qHTS Assay for Modulators of miRNAs and/orActivators of miR-21; 340,000 tested, under 10 active; HeLa miR-21 FLuc reporter, luciferase, 48 h; Potency, µM (doses to about 38.3 µM), for inactives: top-dose reporter change, positive = more light; active = well fitted rising curve with a large enough effect; inconclusive = small, poorly fitted or top-dose-only effect; inactive = no such curve, though single readings can be large or run the other way;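 note: % of control where 0% means no effect; miR-21 action dims this reporter so a rising signal means less miR-21 action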
#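 Using DMEM plus 10% FBS, HeLa miR-21-FLuc cells are incubated with test compounds (final up to about 40uM) for 48 hours; firefly luciferase signal is then imaged following reagent-mediated lysis.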
# Rango dissoc inh: qHTS Assay for Inhibitors of RanGTP induced Rango (Ran-regulated importin-beta cargo) - Importin beta complex dissociation; Biochemical FRET Rango-importin beta, RanGTP-induced dissociation; Potency, µM (doses to about 46.1 µM), without a hit: at the top dose activity change, negative = inhibition; Snurportin-1 (Homo sapiens) + GTP-binding nuclear protein Ran (Homo sapiens) + Importin …; hit rate 0.071% among 340,000; active means falling FRET ratio curve, often poorly fitted, with flat reads before Ran was added; inconclusive means other falling curves, or compound fluorescence or quenching; inactive means flat or rising ratio curve;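 note: potency is the fitted concentration of half-maximal effect; % of control where 0% means no effect; nearly all actives have a fitted effect of over 45% in size; -100% = wells without RanGTP and RCC1; the record marks most hits as doubtful in a second field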
#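 Compounds sat 5 min at room temperature with 0.1 uM Rango biosensor plus 0.25 uM importin beta, then FRET pre-read. RanGTP-RCC1 (0.6 uM Ran, 2mM GTP, 0.2 uM RCC1) added for 45 min, and the CFP/YFP post-read measured blocked complex dissociation.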
# GLA inh pH 4.5: qHTS Assay for Inhibitors of Human alpha-Galactosidase at pH 4.5; purified enzyme, 4-MU-alpha-Gal fluorescence, pH 4.5; activity change, negative = inhibition, % at 105 µM; 230,000 tested, under 10 active; AID 1467, 2008; inconclusive = small, poorly fitted or top-dose-only inhibition, or a rising curve; inactive = flat fitted curve, though single readings scatter; no compound was filed as active;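 note: 0% = full activity with enzyme and -100% = basal without enzyme; dose as in the result columns while the protocol names 77 µM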
# Target sequence (P06280 whole entry, looked up): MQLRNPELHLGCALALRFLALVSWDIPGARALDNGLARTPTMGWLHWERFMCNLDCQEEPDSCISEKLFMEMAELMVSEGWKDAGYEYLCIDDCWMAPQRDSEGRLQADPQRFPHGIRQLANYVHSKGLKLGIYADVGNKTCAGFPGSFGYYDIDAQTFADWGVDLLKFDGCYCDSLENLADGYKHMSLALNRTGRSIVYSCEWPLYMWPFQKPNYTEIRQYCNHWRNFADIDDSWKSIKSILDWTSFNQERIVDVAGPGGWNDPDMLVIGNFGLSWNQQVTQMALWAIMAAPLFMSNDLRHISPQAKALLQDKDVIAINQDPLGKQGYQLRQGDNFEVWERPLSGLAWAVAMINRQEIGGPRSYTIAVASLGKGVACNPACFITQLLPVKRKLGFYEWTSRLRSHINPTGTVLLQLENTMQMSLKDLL
# Numbers without * were called inactive; ? = inconclusive; / = no result given; [ ] = another dose, or the depositor's remark.
SMILES,Rango complex inh,miR-21 reporter,Rango dissoc inh,GLA inh pH 4.5
CC(C)CCn1c(N2CCOCC2)nc2c1c(=O)n(CC(N)=O)c(=O)n2C,4.0%,-4%,4%,7
CN(CC(=O)Nc1ccccc1C(=O)Nc1ccccc1)C1CCCCC1,3.9%,/,11%,/
Cc1sc2ncnc(NCC(C)(C)N3CCOCC3)c2c1C,3.0%,4%,3%,10
C=C1N(C)c2cc([N+](=O)[O-])c(N)cc2C1(C)C,0.1%,6%,-12%,3
O=C1OC(N2CCN(Cc3ccccc3)CC2)c2ccccc21 (configuration not stated),?,/,-17%,/
O=C(Cn1nnc(-c2ccccc2)n1)N=Nc1c(O)[nH]c2ccccc12,-0.3%,-5%,6%,-22
O=C(Nc1sccc1C(=O)NCc1ccco1)c1cccnc1,?,7%,-3%,4
CCOC(=O)N1CCC(NC(=O)c2cccn3c(=O)c4cc(Br)ccc4nc23)CC1,?,0%,?,8
COc1ccc(CCN(C)C(=S)Nc2cccc(C)c2)cc1OC,4.8%,6%,1%,/
Cn1c(-c2cnn(-c3ccccc3)c2N)n[nH]c1=S,-3.7%,-27%,12%,3
CCOC(=O)C1CCCN(C(=O)CN2C(=O)c3ccccc3C2=O)C1 (configuration not stated),-0.5%,1%,-2%,7
O=C(COC(=O)/C=C/c1ccc(F)cc1)NC1CCS(=O)(=O)C1 (configuration not stated),-2.2%,/,-10%,/
CCc1c(C)nc2c(Br)cccc2c1SCCC#N,1.1%,8%,6%,-2
Cc1cc(C)n(-c2ccc(C(=O)Nc3ccccn3)cc2)n1,1.8%,-16%,3%,-1
Cc1nn(C)c(C)c1S(=O)(=O)N1CCC(C(=O)NC2CCCCC2)CC1,1.2%,-2%,-3%,1
Cc1cc(C)nc(NC(N)=NC2CCCCC2)n1,-1.6%,6%,11%,1
Cn1c(Cn2cnc(Cl)c2Cl)nc2ccccc21,2.4%,-1%,-9%,-4
O=C1c2cnc3nc(SCc4ccccc4)nn3c2CC2c3ccccc3CCN12 (configuration not stated),?,3%,-6%,24
O=C(Cn1ncc2ccccc21)N1CCc2ccccc21,0.4%,-7%,-14%,-18
COc1cc2c(cc1NC(=O)C(C)Sc1ccc(C)cc1)oc1ccccc12 (configuration not stated),0.3%,-7%,-3%,-5

# Complete entries from above. Order of values: Rango complex inh, miR-21 reporter, Rango dissoc inh, GLA inh pH 4.5
# Profile of Cc1nn(C)c(C)c1S(=O)(=O)N1CCC(C(=O)NC2CCCCC2)CC1 : 1.2%, -2%, -3%, 1
# Profile of CCOC(=O)C1CCCN(C(=O)CN2C(=O)c3ccccc3C2=O)C1 (configuration not stated) : -0.5%, 1%, -2%, 7
# Profile of O=C(Cn1ncc2ccccc21)N1CCc2ccccc21 : 0.4%, -7%, -14%, -18
# Profile of O=C1OC(N2CCN(Cc3ccccc3)CC2)c2ccccc21 (configuration not stated) : ?, /, -17%, /

# Next part
SMILES,Rango complex inh,miR-21 reporter,Rango dissoc inh,GLA inh pH 4.5
Cc1cc(NC(=O)c2ccc(S(=O)(=O)N3CCOCC3)cc2)nc2c1c(=O)oc1ccccc12,/,0%,/,-6
CCn1nnnc1SCC(=O)NC1Cc2ccccc2C1,-0.4%,3%,1%,1
Cc1nn(-c2ccccc2)c(C)c1/C=N/NC(=O)c1cc(-c2cccs2)[nH]n1,0.5%,17%,0%,-3
O=S(=O)(c1cccc(C(F)(F)F)c1)N1CCN(c2cnccn2)CC1,-1.4%,0%,0%,1
C/C(=N\NC(=S)Nc1cccc(C)c1)c1cc2ccccc2o1,?,-20%,-24%,-2
Cc1cccc(C(=O)NC2CC(C)(C)NC(C)(C)C2)c1,0.1%,2%,-3%,-1
Fc1ccc(CSc2nnc(-c3ccccn3)o2)cc1,2.7%,-44%,7%,/
CCOc1ccc(/C=N/NC(=O)C(O)c2ccccc2)c(O)c1 (configuration not stated),7.3%,18%,-1%,/
Cc1cc(C)n2c(SCC(=O)Nc3ccc(F)cc3F)nnc2n1,-3.4%,-2%,6%,3
O=c1[nH]c(SCc2c(Cl)cccc2Cl)nc2ccccc12,-0.7%,-3%,-5%,3
S=C(Nc1ccc(Cl)c(Cl)c1)N1CCN(c2ccccn2)CC1,-1.4%,0%,6%,/
Cc1ccc(-n2ncc3c2CCCC3NC(=O)CCC2=NNC(=O)CC2)cc1C (configuration not stated),1.8%,-1%,0%,/
O=c1oc2ccccc2c(Nc2ccc3ccccc3c2)c1[N+](=O)[O-],-0.3%,-1%,-5%,-4
NC(=O)C1=C[C@H](C2CCCCC2)C[C@H](OCc2ccc(CO)cc2)O1,-0.3%,-54%,1%,6
COc1ccc(/C=C/c2nnc(NC(C)=O)s2)cc1,?,-23%,-19%,4
COc1ccc(NC(=O)CCCN2C(=O)CN(C)C2=O)c(OC)c1,-0.3%,/,-8%,/
Cc1nn(Cc2ccc(C(=O)Nc3ccccc3C(F)(F)F)o2)c(C)c1Br,2.6%,9%,2%,-6
O=C(c1ccc(Cn2c(=O)[nH]c3ccccc3c2=O)cc1)N1CCN(c2ccc(Cl)cc2)CC1,3.0%,-1%,4%,-5
CC(=O)Nc1ccc(OC(=O)c2cccnc2)cc1,-2.3%,-10%,0%,-4
CC(CSc1nnnn1-c1ccccc1)Cn1c(N2CCN(C)CC2)nc2c1c(=O)[nH]c(=O)n2C (configuration not stated),-1.7%,-3%,-17%,-7

SMILES,Rango complex inh,miR-21 reporter,Rango dissoc inh,GLA inh pH 4.5
Cn1c(N)c(C(=O)COC(=O)/C=C/c2ccc(Cl)cc2)c(=O)n(C)c1=O,5.4%,/,27%,/
CCn1c(SCc2nc3ccccc3c(=O)[nH]2)nnc1C(C)NC(=O)c1ccccc1 (configuration not stated),2.7%,0%,18%,-6[21.1 µM]
CC(Sc1cccc[n+]1[O-])C(=O)Nc1cc(Cl)c(Cl)cc1Cl (configuration not stated),8.0%,/,-8%,/
CN(C)c1ccc(NC(=O)CCCCCn2nnc3ccccc3c2=O)cc1,2.3%,-9%,2%,/
O=C(CCn1c(=S)[nH]c2ccccc2c1=O)NCCSCc1ccccc1,0.5%,0%,22%,11
O=C(Nc1ccc(C(=O)O)cc1)/C(=C\c1ccc(F)cc1)NC(=O)c1ccco1,0.7%,-2%,2%,/
CCOC(=O)N1CCC(NC(=O)c2oc3c(c2C)-c2[nH]ncc2CC3)CC1,0.5%,-2%,-3%,-7
CCC(=O)c1ccc(OCC(=O)N(CC)CC2COc3ccccc3O2)cc1 (configuration not stated),-2.6%,/,7%,/
O=C(NC(=S)NC12CC3CC(CC(C3)C1)C2)c1ccc(F)cc1,4.2%,/,25%,/
O=C(CN1C(=O)c2ccc([N+](=O)[O-])cc2C1=O)NCCC1=CCCCC1,-0.5%,/,-10%,/
CC(=O)c1ccc(S(=O)(=O)N2CCC3(CC2)OCCO3)cc1,?,0%,15%,/
COCCn1c(SCC(=O)Nc2ccc(Cl)c(S(=O)(=O)N(C)C)c2)nc2ccccc21,-0.9%,16%,-13%,-2
CC(C)(C)OC(=O)N[C@@H](COCc1ccccc1)C(=O)N[C@@H](CO)[C@H](O)[C@@H]1C[C@@H]1C(=O)NC1CCCCC1,-1.6%,0%,-5%,/
CCCCCOc1ccc(C(=O)NCCC(=O)NCCCC(=O)OCC)cc1,-1.0%,-1%,6%,-22
COc1ccc2c(c1OC)C(=O)N(c1ccc(O)cc1)C2,3.4%,-17%,-5%,/
N#Cc1ccc(C(=O)OCc2cccc(S(=O)(=O)N3CCOCC3)c2)cc1,-0.5%,/,-1%,/
CC(=O)Nc1ccc(N2CCN(Cc3ccccc3F)CC2)cc1,6.0%,-7%,12%,-16
Cc1ccc2cc3cc(C(=O)N4CCN(C(=O)c5ccco5)CC4)sc3nc2c1,1.9%,-20%,15%,-7
O=C(O)C(=Cc1cc2c(cc1[N+](=O)[O-])OCO2)c1cc2c(cc1Br)OCO2,-0.3%,/,-22%,/
NC(=O)Cn1cnc2c(nnn2-c2ccc(F)cc2)c1=O,0.4%,-1%,-2%,/

SMILES,Rango complex inh,miR-21 reporter,Rango dissoc inh,GLA inh pH 4.5
C#CCNC(=O)[C@H](Cc1ccc(C(=O)c2ccccc2)cc1)NC(=O)OC(C)(C)C,4.1%,/,12%,/
COc1ccc(NC(=O)CN(C)C(=O)Cc2ccsc2)cc1,0.0%,-1%,2%,/
CCCCc1nnc(NC(=O)C=C(C)C)s1,-1.1%,-13%,-8%,-3
CC(CN(C(N)=O)c1ccccc1O)C(=O)O (configuration not stated),1.0%,-3%,1%,8
Cc1ccc(C(=O)C2=C(O)C(=O)N(Cc3cccnc3)C2c2ccc(Br)cc2)o1 (configuration not stated),-3.2%,3%,-9%,/
Oc1ccc2[nH]ccc2c1,0.4%,-24%,7%,-5
CCOC(=O)CCn1nc(-c2ccc(Cl)cc2)cc1N,-5.6%,-58%,9%,1
Cc1ccc2[nH]c(C(=O)Nc3ccc(F)cc3)cc2c1,-1.7%,-31%,4%,/
Cc1cc(C)nc(SCC(=O)N/N=C/c2cccc([N+](=O)[O-])c2)n1,4.3%,-4%,-5%,2
O=C(CCc1nc(-c2ccccc2Cl)no1)NCCc1ccccc1,-1.7%,-8%,8%,/
O=C(O)c1cccc(S(=O)(=O)N2CCCC(c3nc4c(nnn4Cc4ccc(F)cc4)c(=O)[nH]3)C2)c1 (configuration not stated),-0.2%,1%,-2%,/
O=C(Oc1ccc(=O)n(-c2ccccc2)n1)c1ccccc1,0.5%,-2%,6%,-7
O=C1CCC/C1=C/Nc1ccc2c(c1)OCO2,-0.8%,-24%,-5%,0
COC(=O)c1sccc1-c1ccc(C(=O)Nc2cccnc2)o1,-1.3%,-34%,5%,-1
COc1ccc(N(CC(=O)NC2CCCC2)C(=O)CCC(=O)Nc2cc(C)on2)cc1,-0.6%,-3%,-3%,/
Cc1nn(CCOc2ccccc2)c(=O)n1-c1ccc(Cl)cc1,2.0%,-49%,0%,0
CSCCCNC(=S)N(C)CC(=O)Nc1ccc(C)cc1,3.5%,3%,-23%,0
CC1=CC(C)(C)N(C(=O)CSc2nnc(N)s2)c2ccccc21,1.5%,-7%,10%,6
COc1ccc(S(=O)(=O)N2CCCC(C(=O)Nc3ccc4c(c3)OCCO4)C2)cc1 (configuration not stated),-0.7%,-9%,10%,-1
COc1ccccc1CN1CCCC(CN(CCN(C)C)C(=O)C2CCCC2)C1 (configuration not stated),-0.2%,-1%,18%,/

SMILES,Rango complex inh,miR-21 reporter,Rango dissoc inh,GLA inh pH 4.5
Cc1ccc(NC(=O)COC(=O)CCC(=O)c2cccs2)c(Br)c1,0.5%,/,2%,/
Cc1coc2cc3oc(=O)c(CCC(=O)O)c(C)c3cc12,4.0%,2%,-11%,8
COc1ccc(OC)c(NC(=O)c2cccc(N3C(=O)C4C5CCC(C5)C4C3=O)c2)c1 (configuration not stated),0.7%,22%,-10%,/
O=C1Nc2ccccc2C1(c1ccccc1)c1ccccc1,-0.7%,3%,1%,-10
COc1ccc(CN2CCN(Cc3ccc(Br)cc3)CC2)c(OC)c1OC,2.8%,13%,18%,/
O=C(NS(=O)(=O)N1CCCC1)C1=C(N2CCCC2)COC1=O,-0.1%,/,1%,/
COc1cc(NC(=O)Cn2cnc3sc(C)c(S(=O)(=O)N4CCOCC4)c3c2=O)cc(OC)c1OC,0.8%,-3%,10%,/
Cc1cc(C)c(NC(=O)C2C3/C=C\CCCCC32)c(C)c1 (configuration not stated),-0.3%,-10%,5%,0
Cc1ccc(C(=O)C2CCOC(C)(C)C2)cc1 (configuration not stated),0.9%,0%,11%,11
CCOc1ccccc1CN1CCN(Cc2ccon2)CC1CCO (configuration not stated),2.8%,-3%,2%,-3

# An excerpt; count on the stated rates, not on these rows.
